Screening data deposited in PubChem by several laboratories.
Autofluor counter: flagged as autofluorescent in microsphere protease counterscreen; 360,000 compounds, 3.1% hits; fluorescence intensity (concentration not given with the values); compound autofluorescence counterscreen, microsphere flow cytometry; hits give high values;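 active = at least 3 SD above the mean of all compounds, about 16000 in these data; inconclusive = too few beads counted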;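 note: 100 nL of 1 mM stock went into each well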
Sa ugtP lethal: kills S. aureus RN4220 lacking UgtP | 330,000 compounds, 0.54% hits | AID 1259309 | S. aureus RN4220 ugtP deletion, OD600 growth, 16 h; some inactives read as strong as hits | growth inhibition, % (test concentration not listed);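 active = z-score under -3 and OD600 up to 0.15 on both plates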;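 note: plate controls were untreated wells for no effect and antibiotic for full effect; wells of about 80 µL received 100 nL stock; the first replicate is given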
BJeLR viability: kills HRASV12-expressing BJeLR cells; BJeLR (HRASV12) viability, CellTiter-Glo ATP luminescence, 48 h; reference of the scale not given here; inhibition, % (test concentration not listed); 300,000 compounds, 0.17% hits; AID 1554;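 active = replicate mean above 50%; inconclusive = above 50% but judged a plate artefact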;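 note: 50 nL library stock added to about 25 µL; numbers are from one replicate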
PrP 5UTR inh: inhibition of PrP 5' UTR reporter expression. cell-based PrP 5' UTR mRNA reporter, plate reader. inhibition, % (no concentration beside the values). 340,000 compounds, 0.35% hits. AID 488862;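 active = every replicate at 50% or more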;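 note: 0 = median of the neutral control wells; tested in H4 reporter cells; numbers are from one replicate; inactives centre near -14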
Mtb hypoxia inh: Mtb hypoxia fluorescent reporter inhibition; M. tuberculosis hypoxia-regulated fluorescent reporter, fluorescence; fluorescence inhibition, % (test concentration not listed); 300,000 compounds, 0.1% hits; AID 1159583;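 active = 35 to 45% if threefold the growth effect, above 45% if 1.5-fold the growth effect; inactive = the rest, general growth blockers included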;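 note: wells of about 50 µL received 100 nL stock; 0% = vehicle wells and 100% = reference inhibitor wells; whole bacteria with a GFP reporter of the hypoxia response; strong numbers were not always called active; many hits fall short of the cut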
RN4220 kill: S. aureus RN4220 growth inhibition; 330,000 compounds, 0.33% hits; inhibition, % (no concentration beside the values); OD600, 16 h; AID 1259311;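 active = z-score of -3 or lower and OD600 up to 0.18 on both plates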;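 note: plate controls were untreated cells for no effect and reference antibiotic for full effect; stock transfer was 100 nL into about 80 µL; one replicate is shown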
Mtb hypoxia inh growth: also measured in Mtb hypoxia inh; calls as there; growth inhibition, %; measured here: M. tuberculosis growth (absorbance);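 0% = vehicle and 100% = reference antibiotic; read after six days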
Numbers without * were called inactive; u = inconclusive; x = no result given.

mol	Autofluor counter	Sa ugtP lethal	BJeLR viability	PrP 5UTR inh	Mtb hypoxia inh	Mtb hypoxia inh growth	RN4220 kill
COc1ccc(N=C2C(=O)N3CCCc4cccc2c43)cc1	2093	3	18	-17	0	3	-3.9
CCN(CCn1cccn1)Cc1nc(-c2ccc(C(=O)OC)cc2)no1	4440	3	1	-14	6	0	4.0
Cn1cc(Br)c(C(=O)Nc2sc3c(c2C(N)=O)CCCC3)n1	3987	-3	2	-27	12	7	-0.9
CCOC(=O)C(CC)(CC)C(=O)/C=C/c1ccc(OC)cc1	3650	31	-12	-12	4	-7	7.1
CCOc1ccccc1NC(=O)CC1SC(=N)N(c2ccccc2)C1=O (configuration not stated)	x	-6	-11	x	-2	-1	-1.3
COc1ccc(C(=O)NC(=S)Nc2ccc3c4c(cccc24)CC3)cc1OC	2062	-9	4	12	8	-4	-5.1
Cc1ccc2nc(C)c(C(=O)O)cc2c1	2554	-3	9	5	4	4	7.0
COc1ccc(S(=O)(=O)NC(C)c2ccccc2)cc1C(=O)N1CCCCC1 (configuration not stated)	3981	3	-12	5	5	5	2.2
O=C(Cc1c(F)cccc1Cl)N/N=C/c1cccs1	5843	x	-3	-20	x	x	x
Cc1ccc(-n2c(SCC(=O)NCc3ccco3)nc3sc4c(c3c2=O)CC(C)(C)SC4)cc1	4156	15	-10	-13	6	0	7.6
CON=C(C)C(Cc1ccc(Cl)nc1)Cc1ccc(Cl)nc1	x	6	x	x	5	-6	2.5
Cc1cc(C(=O)N2CCN(c3ncccn3)CC2)c(C)o1	21168*	2	11	-14	6	12	3.5
Cc1cnn(CCC(=O)NNC(=S)NCC(C)C)c1	3437	6	7	-17	4	4	7.9
Cc1nn(Cc2ccc(Cl)cc2)c(C)c1NC(=O)Cn1nc([N+](=O)[O-])c(Cl)c1C	2489	-14	5	11	x	x	0.8
CC(C)C(=O)N1CCC2(CC1)Oc1ccc(F)cc1C(=O)C21CC(c2cccnc2)=NO1 (configuration not stated)	x	2	3	x	4	8	1.6
O=C(NN=Cc1ccc([N+](=O)[O-])o1)c1ccccc1NS(=O)(=O)c1cccs1	x	100*	x	x	14	23	100*
Cc1cnc(NC(=O)c2c(O)c3cccc4c3n(c2=O)CCC4)s1	x	47	-1	x	-6	-2	-11
Cn1cccc1/C=N/n1cnnc1	15811	x	7	-18	x	x	x
C#CCSc1nnc(-c2ccc([N+](=O)[O-])cc2)o1	1968	-3	-3	-61	x	x	1.3
CCC(=NC(CC)CO)C1=C(O)CC(C)(C)CC1=O (configuration not stated)	7818	13	3	10	5	-1	1.5
CC(C)NS(=O)(=O)c1ccc2c(c1)oc(=O)n2C	5749	-5	-8	-13	x	x	2.2
COC(=O)c1c(-c2ccc3ccccc3c2)csc1NC(=O)Cc1ccc(OC)c(OC)c1	4458	12	5	-18	x	x	-6.9
CC(C)(C)c1ccc(C(=O)N2CCN(C(=O)c3ccco3)CC2)cc1	6047	3	-2	-22	7	11	4.1
COc1cc(C)c(CN2CC=C(c3ccc(F)cc3)CC2)cc1C	3604	11	0	-20	14	6	-0.8
CCNC(=O)c1ccc2c(c1)S(=O)(=O)c1ccccc1C2=O	4293	3	8	-16	3	3	5.1
CC(=O)N1N=C(C)CC1c1ccc(OCc2ccccc2)cc1 (configuration not stated)	1989	3	-4	-19	9	-2	1.7
O=c1sc2ccccc2n1COc1ccccc1	14682	5	x	-7	0	1	3.4
O=C(COc1ccc2ccccc2c1)N1CCN(C(=O)c2ccc([N+](=O)[O-])cc2)CC1	4443	-8	0	2	5	1	3.1
CC(C)c1ccc(O)c(CN2CCN(c3ccccc3)CC2)c1	4762	17	10	-13	16	12	2.1
C=CCN1C(=O)C2(C(C#N)=C(N)Oc3n[nH]c(CCC)c32)c2ccccc21 (configuration not stated)	3590	-10	-1	-25	x	x	24
CCN(Cc1ccccc1)C(=O)Cn1c(=O)n(CC(=O)NCc2ccco2)c(=O)c2sccc21	21886*	-2	4	-25	4	6	-0.5
O=C(Nc1ccc(Cl)cn1)c1ccc(COCC(F)(F)C(F)F)o1	6495	6	9	-40	8	5	1.8
O=C(COc1ccc2ccccc2c1Br)Nc1ncn[nH]1	21352*	1	4	-57	2	0	5.3
CCCNC(=O)COc1coc(CN2CCN(c3ccc(F)cc3)CC2)cc1=O	5290	0	-4	-22	8	-1	-0.2
Cc1cc(Br)ccc1NC(=O)c1ccccc1-c1ccccc1	2132	-7	3	-6	-5	4	15
COc1cc2nc(C)sc2cc1SC	9335	-3	0	-25	3	11	5.0
O=S(=O)(Nc1cccc(-c2nc3cccnc3s2)c1)c1ccc2c(c1)OCCO2	6831	93*	1	12	-4	10	7.7
CCOC(=O)CN(C(=O)CSc1nnc2c(n1)[nH]c1ccc(F)cc12)c1ccccc1	4176	-10	-10	-6	4	-1	-0.5
Cc1nnsc1C(=O)Nc1ccc(S(=O)(=O)N2CCCCC2)cc1	5157	12	13	3	-8	-4	8.9
CCCn1c(SCC(=O)N2N=C3/C(=C/c4ccc(OC)cc4)CCCC3C2c2ccc(OC)cc2)n[nH]c1=O (configuration not stated)	2116	-3	-8	-1	4	1	4.6
CCC(=O)N1N=C(c2cccs2)CC1c1ccco1 (configuration not stated)	3762	-2	-13	-9	5	4	6.4
CCOC(=O)C(C(=O)N1CCOCC1)C1CCCCC1 (configuration not stated)	8303	1	7	-6	-6	-6	-1.2
Cc1cc(C)c(C#N)c(Oc2ccccc2Br)n1	2213	3	1	2	-1	15	3.7
COCCN(C(=O)CSc1nnc(-c2cccc(OC)c2)n1C)c1c(N)n(Cc2ccccc2)c(=O)[nH]c1=O	4080	4	1	-14	10	14	7.5
Cc1[nH]c2ccccc2c1C(=O)Cn1c(=O)oc2ccccc21	7959	-2	0	-24	8	6	6.5
C=CCn1c(SCC(=O)c2ccc(NS(=O)(=O)c3ccccc3)cc2)nnc1-c1cccs1	20128*	-10	-1	-19	-1	6	4.9
CCN(CC)c1ccc(CNc2nnnn2C)cc1	3899	-1	-4	-62	-1	5	1.8
CC(C)C(=O)Nc1ccc(NC(=S)NC(=O)c2ccc([N+](=O)[O-])cc2)cc1	23025*	1	4	-79	x	x	-5.7

Later entries
structure	Autofluor counter	Sa ugtP lethal	BJeLR viability	PrP 5UTR inh	Mtb hypoxia inh	Mtb hypoxia inh growth	RN4220 kill
O=C(NNC(=S)NCc1ccco1)c1ccc(S(=O)(=O)N2CCOCC2)cc1	4480	13	-5	-13	5	6	7.8
CCOc1cc(C2C(C#N)=C(N)Oc3n[nH]c(C)c32)ccc1OCCN1CCOCC1 (configuration not stated)	4777	-5	-3	-22	-6	5	-0.4
NC(=S)NN=Cc1c(O)ccc2ccccc12	x	-2	x	x	-2	-11	7.2
CCOC(=O)N1CCN(C(=O)CSC2=NS(=O)(=O)c3cc(Cl)ccc3N2)CC1	6198	4	6	-28	6	13	0.0
CC/C(=N\NC(=O)CSCc1ccccc1Br)c1ccc2c(c1)OCCO2	3816	x	1	-16	x	x	x
NS(=O)(=O)c1ccc(NC(=O)c2cc(Cl)sc2Cl)cc1	u	11	-3	-12	2	-2	-1.0
CC(=O)Nc1ccc2nc(N)sc2c1	5565	1	4	-15	3	-4	1.5
Cc1ccc2nc(-c3ccccc3)c(CN3CCSCC3)n2c1	2558	6	1	-19	-7	-6	3.1
N#Cc1nc(Cc2ccccc2)oc1NCc1ccccc1Cl	3364	-6	2	-16	x	x	-8.4
COc1cc(C2Nc3cccc4cccc(c34)N2)ccc1OC(C)=O	5504	-26	-9	-24	-1	5	9.2
CCn1c(SCC(=O)NC)nnc1C(C)C	3831	7	-8	-11	x	x	-1.1
O=C(NCCc1ccccc1)C(=O)N/N=C/c1ccc2c(c1)OCO2	2543	x	8	-5	x	x	x
O=C(CCc1nc(-c2ccccc2)no1)NC1CCCCC1	21669*	2	-12	-12	1	6	-2.7
O=C(O)/C=C/c1ccc(S(=O)(=O)Nc2ccc(C(=O)NCC(=O)O)cc2)cc1	4358	4	-3	-4	2	12	5.3
COc1cc(C2Nc3ccccc3C(=O)N2c2ccc(Cl)cc2)c(Cl)cc1OCC(=O)O (configuration not stated)	2132	4	-3	-23	-3	-3	1.9
COc1ccc2c(C(=O)c3ccc(C)cc3)n(Cc3ccc(C(N)=O)cc3)[n+]([O-])c2c1	2933	-19	x	-22	4	9	2.5
CN1CCc2c(C#N)c(N3CCOCC3)nc(NCC3CCCO3)c2C1 (configuration not stated)	6466	13	0	x	7	-5	3.1
O=C(OCCN1C(=O)c2ccccc2C1=O)C1CCN(S(=O)(=O)c2cccs2)CC1	22995*	-11	-7	-25	4	13	10
Nc1nnnn1N=Cc1ccccc1OCc1ccccc1	x	-16	x	x	9	17	5.4
O=C1c2ccccc2C(=O)N1CCCCNc1ccccc1	3637	3	x	-18	2	5	5.7

In the list so far, seven contain an NH in an aromatic ring:
structure	Autofluor counter	Sa ugtP lethal	BJeLR viability	PrP 5UTR inh	Mtb hypoxia inh	Mtb hypoxia inh growth	RN4220 kill
C=CCN1C(=O)C2(C(C#N)=C(N)Oc3n[nH]c(CCC)c32)c2ccccc21 (configuration not stated)	3590	-10	-1	-25	x	x	24
O=C(COc1ccc2ccccc2c1Br)Nc1ncn[nH]1	21352*	1	4	-57	2	0	5.3
CCOC(=O)CN(C(=O)CSc1nnc2c(n1)[nH]c1ccc(F)cc12)c1ccccc1	4176	-10	-10	-6	4	-1	-0.5
CCCn1c(SCC(=O)N2N=C3/C(=C/c4ccc(OC)cc4)CCCC3C2c2ccc(OC)cc2)n[nH]c1=O (configuration not stated)	2116	-3	-8	-1	4	1	4.6
COCCN(C(=O)CSc1nnc(-c2cccc(OC)c2)n1C)c1c(N)n(Cc2ccccc2)c(=O)[nH]c1=O	4080	4	1	-14	10	14	7.5
Cc1[nH]c2ccccc2c1C(=O)Cn1c(=O)oc2ccccc21	7959	-2	0	-24	8	6	6.5
CCOc1cc(C2C(C#N)=C(N)Oc3n[nH]c(C)c32)ccc1OCCN1CCOCC1 (configuration not stated)	4777	-5	-3	-22	-6	5	-0.4

Continued.
structure	Autofluor counter	Sa ugtP lethal	BJeLR viability	PrP 5UTR inh	Mtb hypoxia inh	Mtb hypoxia inh growth	RN4220 kill
COc1ccc(NC(C)=O)cc1S(=O)(=O)Nc1cccc(S(=O)(=O)NC2=NCCC2)c1	5375	3	x	-22	14	33	-1.7
CCOC(=O)C1CCCN(C(=O)c2ccc(C)c([N+](=O)[O-])c2)C1 (configuration not stated)	2388	2	7	-31	5	23	1.6
CC(C)c1ccccc1OCCNS(C)(=O)=O	2901	-6	-2	-6	6	5	3.8
CCOC(=O)c1c(C)[nH]c(C(=O)COC(=O)[C@H](C)NC(=O)c2ccccc2Cl)c1C	2226	-2	-7	-29	8	12	1.2
CCc1ccc2nc3sc(C(=O)Nc4nnc(CC)s4)c(N)c3cc2c1	8630	3	-1	-34	12	5	14
CC(=O)Nc1ccc(Sc2ncccc2C(=O)Nc2cc(Cl)cc(Cl)c2)cn1	9479	-5	0	-21	1	-1	-0.1
CN(C)S(=O)(=O)c1ccc(NC(=O)CSc2nc3ccccc3n2-c2ccccc2)cc1	9365	-1	0	1	4	-2	14
Nc1nonc1-n1nnc(C(=O)NN=CC2CC=CCC2)c1CSc1ccccc1 (configuration not stated)	x	8	x	x	9	5	5.7
CC1CCCC(NC(=O)CCC(=O)N2CCOc3ccccc32)C1C (configuration not stated)	4140	13	5	-6	6	-3	4.5
NC(=O)C(=O)NCCCN1CCOCC1	4414	5	-5	-42	9	5	3.3
